A1 apoptosis 2 – A1 inhibitors via caspase activation, primary screen, cell-based, luminescence, HTS, two replicates. caspase activation, % (no concentration beside the values). 24,000 tested, under 10 active. MEF A1-2A-BIM cells, caspase-Glo luminescence, 3 h; percent of clofoctol response, DMSO zero; in the data active = caspase activation above about 5.9%;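 note: wells of about 30 µL received 50 nL stock; the first replicate is given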
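Material: A1-2A-BIM-expressing MEF cells. Buffer or medium: RPMI-1640 plus 10% FBS. Incubation: cells settled overnight, compound exposure 3 h at 37 °C, 5% CO2. Signal: Caspase-Glo 3/7 luminescence, 1 h at room temperature.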
* marks the source's active call; other numbers are inactive results. These rows are one share of the data, so the mix of outcomes need not match the whole.

smiles	A1 apoptosis 2
C[C@@H]1CN([C@H](C)CO)C(=O)c2cccc(NC(=O)Nc3ccccc3)c2O[C@@H]1CN(C)C	0.4
C[C@H](CO)N1C[C@H](C)[C@H](CN(C)S(=O)(=O)c2ccc(F)cc2)OCCCC[C@H](C)Oc2ccc(NC(=O)Nc3cccc4ccccc34)cc2C1=O	0.3
C[C@H](CO)N1C[C@H](C)[C@H](CN(C)S(C)(=O)=O)Oc2ccc(NS(=O)(=O)c3ccc(F)cc3)cc2CC1=O	1.2
CNC[C@@H]1Oc2ccc(NS(=O)(=O)c3cn(C)cn3)cc2CC(=O)N([C@@H](C)CO)C[C@@H]1C	0.5
Cc1noc(C)c1NC(=O)Nc1ccc2c(c1)C(=O)N([C@H](C)CO)C[C@H](C)[C@@H](CN(C)C(=O)CCCN(C)C)OCCCC[C@H](C)O2	-0.3
CCCN(C)C[C@H]1OCCCC[C@@H](C)Oc2ccc(NC(=O)Nc3ccc(C(F)(F)F)cc3)cc2C(=O)N([C@H](C)CO)C[C@H]1C	1.0
C[C@@H]1CN([C@H](C)CO)C(=O)Cc2cc(NC(=O)CCC(F)(F)F)ccc2O[C@@H]1CN(C)S(=O)(=O)c1ccccc1	0.2
CC(C)NC(=O)Nc1ccc2c(c1)C(=O)N([C@H](C)CO)C[C@@H](C)[C@@H](CN(C)Cc1ccc(C(=O)O)cc1)OCCCC[C@@H](C)O2	0.4
COCCOC(=O)N1C(=O)[C@@]2(c3cc(C#CC4=CCCCC4)ccc31)[C@H](C(=O)N1CCN(c3ncccn3)CC1)[C@H]1C(=O)O[C@H](c3ccccc3)[C@H](c3ccccc3)N1[C@@H]2c1ccc(O)cc1	0.2
CC(C)NC(=O)N(C)C[C@H]1Oc2c(NC(=O)Nc3ccccc3)cccc2C(=O)N([C@@H](C)CO)C[C@H]1C	0.9
C[C@H]1CN([C@@H](C)CO)C(=O)c2cc(NC(=O)NC3CCCCC3)ccc2O[C@@H]1CN(C)Cc1ccc2c(c1)OCO2	0.7
C=CC[C@H](O)c1ccc(O)c(F)c1	-0.3
C[C@@H]1CCCCO[C@H](CN(C)C(=O)NC2CCCCC2)[C@H](C)CN([C@@H](C)CO)C(=O)c2cc(NC(=O)c3ccncc3)ccc2O1	-1.0
C[C@@H]1CN([C@H](C)CO)C(=O)Cc2cc(NS(=O)(=O)c3ccc(F)cc3)ccc2O[C@H]1CN(C)C(=O)Nc1cccc2ccccc12	1.4
C[C@H]1CN([C@@H](C)CO)C(=O)Cc2cc(NC(=O)CCCCCC(=O)Nc3ccccc3N)ccc2O[C@@H]1CN(C)C(=O)Nc1ccc(C(F)(F)F)cc1	-0.8
O=C1N(CCS(=O)(=O)c2ccccc2)Cc2ccccc2[C@@H]2OC(c3ccc(OCCCO)cc3)=N[C@]12Cc1ccccc1	-1.0
C[C@H](CO)N1C[C@H](C)[C@@H](CN(C)Cc2ccc(C(=O)Nc3ccccc3N)cc2)Oc2c(NS(=O)(=O)c3ccccc3)cccc2C1=O	-0.2
C[C@@H]1CN([C@H](C)CO)C(=O)c2cccc(NS(=O)(=O)c3ccc(Cl)cc3)c2O[C@@H]1CN(C)Cc1ccc(-c2ccccc2)cc1	-0.4
C[C@@H]1CN([C@H](C)CO)C(=O)Cc2cc(NC(=O)Nc3ccc(F)cc3)ccc2O[C@H]1CN(C)CC1CC1	-0.6
Cc1noc(C)c1NC(=O)Nc1ccc2c(c1)C(=O)N([C@@H](C)CO)C[C@H](C)[C@H](CN(C)Cc1ccc(Oc3ccccc3)cc1)O2	2.2
C[C@@H]1CN([C@H](C)CO)C(=O)c2cc(NC(=O)CCCN(C)C)ccc2O[C@@H](C)CCCCO[C@@H]1CN(C)C(=O)c1ccccc1	0.0
COc1ccc(CN(C)C[C@@H]2OCCCC[C@H](C)Oc3ccc(NC(=O)CCC(F)(F)F)cc3C(=O)N([C@@H](C)CO)C[C@H]2C)cc1	-0.6
C[C@H]1CCCCO[C@H](CN(C)S(=O)(=O)c2ccccc2)[C@@H](C)CN([C@@H](C)CO)C(=O)c2cc(NC(=O)Nc3ccccc3)ccc2O1	-0.5
C[C@H]1CN([C@@H](C)CO)C(=O)Cc2cc(NC(=O)CCCCCC(=O)Nc3ccccc3N)ccc2O[C@H]1CN(C)C(=O)Nc1cccc2ccccc12	-0.3
COc1ccc(S(=O)(=O)N(C)C[C@@H]2Oc3ncc(/C=C/c4ccccc4)cc3C(=O)N([C@H](C)CO)C[C@@H]2C)cc1	-0.2
CC(C)NC(=O)Nc1ccc2c(c1)C(=O)N([C@@H](C)CO)C[C@H](C)[C@H](CN(C)C)O2	-1.4
C[C@H]1CCCCO[C@@H](CN(C)CC2CCCCC2)[C@@H](C)CN([C@@H](C)CO)C(=O)c2cc(NC(=O)Nc3ccccc3)ccc2O1	-1.8
Cc1noc(C)c1NC(=O)Nc1ccc2c(c1)C(=O)N([C@H](C)CO)C[C@@H](C)[C@@H](CN(C)C)OCCCC[C@@H](C)O2	-1.3
C[C@H]1CN([C@@H](C)CO)C(=O)c2cc(NC(=O)Nc3ccccc3)ccc2O[C@H]1CN(C)C(=O)Nc1ccc2c(c1)OCO2	0.6
CCCN(C)C[C@H]1OCCCC[C@@H](C)Oc2ccc(N(C)C)cc2C(=O)N([C@H](C)CO)C[C@@H]1C	-0.7

In the list so far, two have an aryl methoxy group.
smiles	A1 apoptosis 2
COc1ccc(CN(C)C[C@@H]2OCCCC[C@H](C)Oc3ccc(NC(=O)CCC(F)(F)F)cc3C(=O)N([C@@H](C)CO)C[C@H]2C)cc1	-0.6
COc1ccc(S(=O)(=O)N(C)C[C@@H]2Oc3ncc(/C=C/c4ccccc4)cc3C(=O)N([C@H](C)CO)C[C@@H]2C)cc1	-0.2

Following part
smiles	A1 apoptosis 2
C[C@@H]1CN([C@H](C)CO)C(=O)c2cccc(NC(=O)C3CCOCC3)c2O[C@@H]1CN(C)C(=O)NC1CCCCC1	-0.2
C[C@@H]1CN([C@H](C)CO)C(=O)c2cc(NC(=O)CCC(F)(F)F)ccc2O[C@@H](C)CCCCO[C@@H]1CN(C)C(=O)c1ccncc1	0.2
C[C@@H]1CN([C@@H](C)CO)C(=O)c2cc(NC(=O)Nc3ccc4c(c3)OCO4)ccc2O[C@@H](C)CCCCO[C@@H]1CN(C)Cc1ccccc1	-0.8
C[C@@H]1CN([C@@H](C)CO)C(=O)Cc2cc(NC(=O)C3CC3)ccc2O[C@@H]1CN(C)Cc1ccc2c(c1)OCO2	0.3
C[C@@H]1CN([C@@H](C)CO)C(=O)Cc2cc(NC(=O)NC3CCCCC3)ccc2O[C@H]1CN(C)Cc1ccc(C(=O)Nc2ccccc2N)cc1	0.0
O=C(NO)c1ccc(C(=O)N/N=C/c2ccc(O)cc2Br)cc1	-2.6
COc1ccc(S(=O)(=O)Nc2ccc3c(c2)C(=O)N([C@H](C)CO)C[C@H](C)[C@H](CN(C)Cc2ccc4c(c2)OCO4)O3)cc1	-0.3
C[C@H]1CCCCO[C@H](CN(C)C(=O)NC2CCCCC2)[C@@H](C)CN([C@@H](C)CO)C(=O)c2cc(N(C)C)ccc2O1	1.4
C[C@H](CO)N1C[C@H](C)[C@@H](CN(C)C)Oc2ccc(NC(=O)CCCN(C)C)cc2C1=O	-0.3
C[C@@H]1CCCCO[C@@H](CN(C)Cc2ccncc2)[C@H](C)CN([C@H](C)CO)C(=O)c2cc(NS(C)(=O)=O)ccc2O1	0.2
CNC[C@H]1OCCCC[C@H](C)Oc2ccc(NC(=O)NC(C)C)cc2C(=O)N([C@@H](C)CO)C[C@H]1C	-0.1
C[C@H]1CN([C@@H](C)CO)C(=O)c2cc(N(C)C)ccc2O[C@H]1CN(C)C(=O)Nc1ccc2c(c1)OCO2	-0.2
CNC[C@H]1Oc2ccc(NC(=O)Nc3ccc(C(F)(F)F)cc3)cc2CC(=O)N([C@H](C)CO)C[C@H]1C	-2.0
COc1ccc(CN(C)C[C@H]2Oc3ccc(NC(=O)C4CCCCC4)cc3CC(=O)N([C@@H](C)CO)C[C@H]2C)cc1	-0.5
C[C@H]1CN([C@@H](C)CO)C(=O)c2cc(NC(=O)Cc3ccccc3)ccc2O[C@H]1CN(C)Cc1ccc(Cl)c(Cl)c1	2.6
C[C@H](CO)N1C[C@H](C)[C@H](CN(C)S(=O)(=O)c2cn(C)cn2)Oc2ncc(-c3ccc(F)cc3)cc2C1=O	-1.1
C[C@H](CO)N1C[C@H](C)[C@@H](CN(C)Cc2ccncc2)Oc2ccc(NC(=O)C3CC3)cc2CC1=O	0.8
CC(C)NC(=O)N(C)C[C@H]1OCCCC[C@@H](C)Oc2ccc(NS(=O)(=O)c3cn(C)cn3)cc2C(=O)N([C@H](C)CO)C[C@@H]1C	1.6
C#CCNC(=O)C1=C[C@H](C2CCCCC2)C[C@H](OCCCCO)O1	0.5
C[C@H](CO)N1C[C@H](C)[C@@H](CN(C)C(=O)Nc2cccc3ccccc23)Oc2c(NS(=O)(=O)c3ccccc3)cccc2C1=O	1.2
C[C@H](CO)N1C[C@H](C)[C@@H](CN(C)C(=O)Nc2cccc3ccccc23)Oc2ccc(NC(=O)CCCN(C)C)cc2C1=O	-0.6
Cc1noc(C)c1NC(=O)N(C)C[C@H]1OCCCC[C@@H](C)Oc2ccc(NS(=O)(=O)c3ccc(F)cc3)cc2C(=O)N([C@H](C)CO)C[C@H]1C	0.4
Cc1noc(C)c1NC(=O)Nc1ccc2c(c1)C(=O)N([C@@H](C)CO)C[C@H](C)[C@@H](CN(C)Cc1ccncc1)OCCCC[C@@H](C)O2	0.9
C[C@H](CO)N1C[C@H](C)[C@H](CN(C)S(=O)(=O)c2ccc(Cl)cc2)Oc2c(NS(=O)(=O)c3cn(C)cn3)cccc2C1=O	1.6
CNC[C@@H]1Oc2ccc(NC(=O)Cc3cn(C)c4ccccc34)cc2CC(=O)N([C@@H](C)CO)C[C@@H]1C	2.4
C[C@@H]1CN([C@H](C)CO)C(=O)c2cc(NS(=O)(=O)c3ccc(Cl)cc3)ccc2O[C@@H](C)CCCCO[C@H]1CN(C)C(=O)Nc1ccc(C(F)(F)F)cc1	0.1
C[C@H]1CN([C@@H](C)CO)C(=O)c2cc(NS(=O)(=O)c3ccc(Cl)cc3)ccc2O[C@H]1CN(C)C(=O)Nc1ccccc1	-0.3
C[C@@H]1CN([C@@H](C)CO)C(=O)c2cc(NS(=O)(=O)c3ccc(F)cc3)ccc2O[C@@H](C)CCCCO[C@@H]1CN(C)C(=O)CCCN(C)C	-1.0
COc1ccc(NC(=O)N(C)C[C@@H]2Oc3ccc(NS(=O)(=O)c4c(C)noc4C)cc3CC(=O)N([C@@H](C)CO)C[C@@H]2C)cc1	0.8
COc1ccccc1/C=C/C=O	0.1

4 of the compounds above, with each value named:
C[C@@H]1CN([C@H](C)CO)C(=O)c2cc(NS(=O)(=O)c3ccc(Cl)cc3)ccc2O[C@@H](C)CCCCO[C@H]1CN(C)C(=O)Nc1ccc(C(F)(F)F)cc1
  A1 apoptosis 2 = 0.1

C[C@H]1CN([C@@H](C)CO)C(=O)c2cc(NS(=O)(=O)c3ccc(Cl)cc3)ccc2O[C@H]1CN(C)C(=O)Nc1ccccc1
  A1 apoptosis 2 = -0.3

C[C@@H]1CN([C@@H](C)CO)C(=O)c2cc(NS(=O)(=O)c3ccc(F)cc3)ccc2O[C@@H](C)CCCCO[C@@H]1CN(C)C(=O)CCCN(C)C
  A1 apoptosis 2 = -1.0

COc1ccc(NC(=O)N(C)C[C@@H]2Oc3ccc(NS(=O)(=O)c4c(C)noc4C)cc3CC(=O)N([C@@H](C)CO)C[C@@H]2C)cc1
  A1 apoptosis 2 = 0.8

(list continues)
smiles	A1 apoptosis 2
CC(C)NC(=O)N(C)C[C@H]1OCCCC[C@H](C)Oc2ccc(NC(=O)CCCN(C)C)cc2C(=O)N([C@@H](C)CO)C[C@H]1C	0.2
C[C@H](CO)N1C[C@H](C)[C@H](CN(C)Cc2ccc(C(=O)Nc3ccccc3N)cc2)Oc2ccc(NS(=O)(=O)c3cccs3)cc2CC1=O	0.3
C[C@H]1CN([C@@H](C)CO)C(=O)c2cc(NC(=O)Nc3ccc(F)cc3)ccc2O[C@@H]1CN(C)C(=O)Nc1ccc(F)cc1	0.7
O=C(NO)c1cccc(C(=O)N/N=C/c2c(O)cc(O)cc2O)c1	1.6
C[C@H]1CN([C@@H](C)CO)C(=O)Cc2cc(NC(=O)Cc3ccccc3)ccc2O[C@@H]1CN(C)Cc1ccc(C(=O)O)cc1	0.3
C[C@@H]1CN([C@@H](C)CO)C(=O)c2cc(NC(=O)CCC(F)(F)F)ccc2O[C@@H](C)CCCCO[C@@H]1CN(C)C(=O)NC1CCCCC1	1.9
COc1ccc(CN(C)C[C@H]2OCCCC[C@H](C)Oc3ccc(NC(=O)C4CCCCC4)cc3C(=O)N([C@H](C)CO)C[C@H]2C)cc1	-0.5
C=CC[C@]12N=C(c3ccc(OCCCO)cc3)O[C@H]1c1ccccc1N(CCS(=O)(=O)c1ccccc1)C2=O	-0.2
COc1ccc(CN(C)C[C@@H]2Oc3c(NS(=O)(=O)c4cn(C)cn4)cccc3C(=O)N([C@H](C)CO)C[C@H]2C)cc1	0.2
COc1ccc(CN(C)C[C@H]2Oc3ccc(NC(=O)Nc4ccc(F)cc4)cc3C(=O)N([C@H](C)CO)C[C@@H]2C)cc1	-1.0
C[C@H]1CN([C@@H](C)CO)C(=O)c2cc(NC(=O)Nc3ccc4c(c3)OCO4)ccc2O[C@@H]1CN(C)C(=O)NC1CCCCC1	-1.1
C[C@H](CO)N1C[C@H](C)[C@@H](CN(C)S(=O)(=O)c2ccc(F)cc2)OCCCC[C@H](C)Oc2ccc(NC(=O)Nc3ccc(F)cc3)cc2C1=O	-0.1
C[C@@H]1CN([C@@H](C)CO)C(=O)Cc2cc(NC(=O)Nc3ccccc3)ccc2O[C@H]1CN(C)Cc1ccncc1	0.8
